LASV entry inh: blocks Lassa virus binding to or entry into cells | Potency, µM (top dose mostly 37.9 µM), inactives show top-dose activity change, negative = inhibition, actives largely listed as inhibitors | Lassa virus pseudotype entry inhibition, cell reporter; control for the full effect not named in the record | 300,000 tested, 1.2% active; active means well fitted inhibition curve with a large enough effect; inconclusive means small, poorly fitted or top-dose-only effect, or effect the other way; inactive means flat fitted curve, though single readings scatter; tested in HEK293 cells; also: % is scaled to controls: 0 for no effect and ±100 for the full control effect; nearly all actives have a fitted effect of over 50% in size; luciferase read-out
Cruzain noTriton: inhibitors of Trypanosoma cruzi cruzain without detergent | P25779 | purified cruzain, Z-FR-AMC fluorescence, no detergent | Potency, µM, inactives show max response, negative = inhibition, usual class: inhibitors | 200,000 tested, 2.3% active | AID 1476; active = well fitted curve in the direction sought with a large enough effect; inconclusive = small, poorly fitted or top-dose-only effect, or another doubt; inactive = no such curve, though single readings can be large; an effect the other way counts as inactive or inconclusive;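 also: plate controls were enzyme without inhibitor for no effect and buffer without enzyme for full effect; nearly all actives have a fitted effect of over 40% in size; top concentration of the series not given in the record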
Target sequence (P25779 123-467 limits assumed): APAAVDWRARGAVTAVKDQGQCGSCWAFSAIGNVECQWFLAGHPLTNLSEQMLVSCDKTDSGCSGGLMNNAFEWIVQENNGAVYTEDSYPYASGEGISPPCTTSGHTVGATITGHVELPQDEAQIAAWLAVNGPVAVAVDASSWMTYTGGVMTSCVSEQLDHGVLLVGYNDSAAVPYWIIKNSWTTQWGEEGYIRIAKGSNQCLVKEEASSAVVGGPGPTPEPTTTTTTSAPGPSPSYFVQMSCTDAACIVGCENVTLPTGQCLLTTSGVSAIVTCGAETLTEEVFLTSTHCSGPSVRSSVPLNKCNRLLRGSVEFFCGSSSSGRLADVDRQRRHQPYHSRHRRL
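Detergent-free condition (0.00005% Triton X-100) in acetate buffer pH 5.5 with DTT. 1.5 nM enzyme and compound were pre-mixed 15 min, then 2 uM Z-FR-AMC substrate added; reaction progress from fluorescence change between first and third reads (60 s).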
NS1 inh: blocks influenza NS1 protein function | S. cerevisiae slowed by influenza A NS1, growth recovery by OD600 | Potency, µM (highest dose often 46.1 µM), inactives show at the top dose activity, positive = more growth | 270,000 tested, 0.4% active | AID 2326; also: actives are rising curves; nearly all actives have a fitted effect of over 50% in size
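S. cerevisiae expressing influenza A NS1, grown in glucose, washed, then diluted 1:100 into pH 6.0 -URA galactose medium with 23 nl compound. Growth recovery read as OD600; NS1-free strain serves as control.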
Marburg entry inh: blocks Marburg virus binding to or entry into cells; Marburg virus pseudotyped entry inhibition, cell reporter; control for the full effect not named in the record; about a third of the inactives were read at about 46 µM; Potency, µM (top dose mostly 37.8 µM), for the others: at the top dose activity change, negative = inhibition, hits mostly inhibitors; 300,000 tested, 1.8% active; AID 540276; active = well fitted inhibition curve with a large enough effect; inconclusive = small, poorly fitted or top-dose-only effect, or effect the other way; inactive = flat fitted curve, though single readings scatter; tested in HEK293 cells; about a fifth of its hits are not listed in these tables; also: % is scaled to controls: 0 for no effect and ±100 for the full control effect; luciferase read-out
Cruzain inh Det: blocks cruzain activity in presence of Triton detergent; purified cruzain, Z-FR-AMC fluorescence, 0.01% Triton; Potency, µM, without a hit: max response, negative = inhibition, usual class: inhibitors; 200,000 tested, 0.43% active; AID 1478; active = well fitted curve in the direction sought with a large enough effect; inconclusive = small, poorly fitted or top-dose-only effect, or another doubt; inactive = no such curve, though single readings can be large; an effect the other way counts as inactive or inconclusive;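 also: plate controls were neutral wells for no effect and buffer without enzyme for full effect; nearly all actives have a fitted effect of over 40% in size; top concentration of the series not given in the record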
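Steps: dispense cruzain (1.5 nM final) in acetate buffer pH 5.5 with DTT and 0.01% Triton X-100; pin-transfer compounds; incubate 15 min RT; add Z-FR-AMC (2 uM final); read fluorescence every 30 s, using the 60 s intensity change.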
2A StopGo: lowers the luciferase signal of an FMDV 2A StopGo reporter; human cells with a luciferase reporter of 2A StopGo recoding; control for the full effect not named in the record; Potency, µM (highest dose often 57.9 µM), for the others: top-dose signal change, negative = less light; 410,000 tested, 1.2% active; active = well fitted falling curve with a large enough effect; inconclusive = small, poorly fitted or top-dose-only effect; inactive = no such curve, though single readings can be large or run the other way; tested in HEK293T cells; also: % is scaled to controls: 0 for no effect and ±100 for the full control effect; nearly all actives have a fitted effect of over 45% in size; luciferase light after 4 h
SARS PLP yeast: SARS-CoV PLP inhibition in yeast; 330,000 tested, 0.19% active; S. cerevisiae expressing SARS-CoV PLpro, growth rescue; control for the full effect not named in the record; Potency, µM (top dose mostly 32.9 µM), without a hit: at the highest dose activity, positive = growth rescue; AID 485353; also: 0% is about no effect; nearly all actives have a fitted effect of over 55% in size; growth read by luminescence after 48 h
RE007 growth inh: less growth of the S. pombe RE007 Vpr strain. AID 651644. 360,000 tested, 0.21% active. Potency, µM (titrated, usually from 92.2 µM), for the others: top-dose activity change, negative = less growth. S. pombe RE007 Vpr strain, BacTiter-Glo ATP luminescence, 24 h; control for the full effect not named in the record; active = well fitted falling curve with a large enough effect; inconclusive = small, poorly fitted or top-dose-only effect; inactive = no such curve, though single readings can be large or run the other way;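 also: % is scaled to controls: 0 for no effect and ±100 for the full control effect; nearly all actives have a fitted effect of over 50% in size; the assay follows cell death caused by Vpr and the record does not say whether a fall means rescue or toxicity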
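Fission yeast RE007 carrying one integrated HIV-1 vpr copy, seeded at OD 0.01 in PMG+AL medium with 23 nL pinned compound. Grown 24 h at 30 degrees; viability read by BacTiter-Glo luminescence after 5 min.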
The depositor's hits bear a star; ? = inconclusive; . = not tested or not shown; [ ] = another dose, or the depositor's remark. Unless noted, calls follow the shape of the dose curve; as a rule, active means well fitted rising curve with a large enough effect; inconclusive means small, poorly fitted or top-dose-only effect; inactive means no such curve, though single readings can be large or run the other way. Potency is read from the fitted curve at half-maximal effect. Not a hit list. About 4.7% of those tested had a hit in this group.

SMILES	LASV entry inh	Cruzain noTriton	NS1 inh	Marburg entry inh	Cruzain inh Det	2A StopGo	SARS PLP yeast	RE007 growth inh
COc1ccc(CCNS(=O)(=O)c2cccc3cccnc23)cc1OC	.	.	-3%	.	.	-21%	0%	27%
O=C(CCS(=O)(=O)Cc1ccccc1)N1CCN(c2ccccc2)CC1	1%	-3%	-1%	5%	9.9%	-4%	10%	-11%
O=S1(=O)c2ccccc2N(Cc2cccc(F)c2)c2ccccc21	1%[46.1 µM]	-28%	.	.	-3.6%	-24%	.	.
COc1cccc(/C=C2\SC(=O)N(CCC(=O)N3CCC(C(=O)O)CC3)C2=O)c1	.	.	-1%	.	.	1%	2%	-5%
COc1ccccc1CNC(=O)CCC1N=C2c3ccccc3N=C(SCC(=O)Nc3ccc(F)cc3)N2C1=O (stereo unspecified)	-15%[46.1 µM]	16%	.	.	-4.0%	?	.	.
CCOC(=O)c1c(C2COc3ccccc3O2)csc1NC(=O)c1ccco1 (stereo unspecified)	-9%	?	0%	-43%	-12%	-18%	-5%	?
O=C(Nc1ccc(Cl)cc1)C1CC(=O)n2c(nc3ccccc32)N1 (stereo unspecified)	-12%	.	.	2%[46.1 µM]	.	5%	3%	57%
COc1ccc(C2=NN(S(=O)(=O)c3ccccc3)C(c3ccccc3)C2)cc1 (stereo unspecified)	.	.	12%	.	.	5%	0%	-2%
COc1ccc(C(CCNCc2ccc(OC(C)C)cc2)C(C)C)cc1 (stereo unspecified)	?	.	-8%	?	.	?	0%	2%
COc1ccc(/C(C)=N/NC(=O)c2ccc3nc[nH]c3c2)cc1	.	.	7%	.	.	13%	-1%	-8%
O=C(CSc1nnc(-c2ccncc2)n1Cc1ccco1)Nc1nc(-c2ccccc2)cs1	-20%	?	6%	?	-6.0%	18µM*	9%	20%
O=C(CSc1nnnn1-c1ccccc1)N1CCCc2ccccc21	10%	-2%	-24%	12%	-3.0%	-5%	1%	3%
CCCCc1nnc(NC(=O)CSCc2cc(=O)n3cc(C)sc3n2)s1	.	.	-5%	.	.	-26%	-3%	-3%
COC(=O)Nc1ccc(S(=O)(=O)N2c3ccccc3CCC2C)cc1 (stereo unspecified)	-47%	-6%	-38%	-22%	-6.6%	.	-3%	13%
O=C(OCC(=O)N1CCCCC1)c1cc(NS(=O)(=O)c2ccc(Cl)c([N+](=O)[O-])c2)ccc1O	5%	?	6%	21%	-5.5%	-6%	-1%	-4%
CCN1CCN(CCCOc2ccc(Cl)cc2Br)CC1	?	.	12%	?	.	-7%	-1%	5%
CC(C)c1nnc(NC(=O)C2c3ccccc3Oc3ccccc32)s1	7%	-6%	9%	-12%	-6.1%	-8%	3%	-5%
Cc1ccc(NC(=O)COC(=O)Cc2ccccc2)cc1S(=O)(=O)N1CCOCC1	18%	.	.	-7%	.	14%	1%	24%
COC(=O)c1c(CSc2cccc(C)c2)noc1C(=O)NCc1ccco1	.	-2%	-8%	.	-2.9%	-10%	-22%	3%
Cc1ccc(C(=O)O/N=C(\N)c2cccc([N+](=O)[O-])c2)cc1	?	-1%	-48%	0%	-0.7%	-21%	-11%	5%
Cc1ccc(CNC(=O)c2ccc3c(=O)c(O)c(-c4ccc(C)cc4)[nH]c3c2)cc1	.	.	8%	.	.	-25%	?	11%
O=C(COc1ccccc1F)Nc1ccc(Cl)c(-c2nc3ccccc3[nH]2)c1	-24%[46.1 µM]	?	.	-21%[46.1 µM]	-6.6%	-4%	.	.
CCCN(CCC)C(=O)c1ccc2nc(-c3ccc(OC)c(OC)c3)c(-c3ccc(OC)c(OC)c3)nc2c1	.	.	-7%	.	.	16%	1%	1%
CCOc1ccc(NC(=O)N(Cc2c[nH]c3ccccc23)C2CCCCC2)cc1	-1%[46.1 µM]	9%	.	18%[46.1 µM]	-19%	30%	.	.
Cc1cc(-c2nnc3n2N=C(c2ccc(-c4ccccc4)cc2)CS3)n[nH]1	?	25µM*	3.2µM*	?	-10%	?	-15%	27%
O=C(COC(=O)C1CCC1)NCc1ccccc1	6%	.	.	16%	.	-15%	.	24%
CCOc1ccc(/C=N/NC(=O)C2(O)c3ccccc3-c3ccccc32)cc1	-3%	4%	-7%	-19%	-7.7%	-16%	0%	1%
Cc1ccc(C)c(N(C(=O)c2snc(C(N)=O)c2N)C(C(=O)NCC2CCCO2)c2ccc(C)o2)c1 (stereo unspecified)	-18%	.	-8%	?	.	2%	0%	-19%
COc1ccccc1-c1n[nH]c(=S)o1	-1%	8%	5%	3%	-0.3%	0%	-1%	-14%
COc1cc(NC(=O)N2CCN(c3cc(-c4noc(C)n4)ccc3C)CC2)cc(OC)c1OC	-1%[46.1 µM]	?	.	.	-3.4%	-2%	.	.
CC1C(=O)CC(c2ccco2)NC1c1ccco1 (stereo unspecified)	.	0%	2%	4%	5.6%	.	?	.
Brc1cccc(-c2nnc3sc(CNC4CCCC4)cn23)c1	.	-3%	-1%	6%	1.0%	?	-5%	1%
CC(C)COc1ccc(C(=O)N(Cc2ccco2)C2CCS(=O)(=O)C2)cc1 (stereo unspecified)	?	23%	11%	-6%	-5.6%	-29%	1%	-4%
CCCCN(C)CC(O)Cn1cc(/C=C/C(=O)c2cccs2)c2ccccc21 (stereo unspecified)	?	-10%	-5%	?	-12%	0%	-3%	3%
Cc1onc(C(=O)NN)c1C(=O)N1CCN(C(c2ccccc2)c2ccccc2)CC1	-16%[46.1 µM]	.	.	?	.	24%	1%	-5%
O=[N+]([O-])c1ccc(C2C3C(c4ccccc4)=NC4(CCCCC4)N32)cc1 (stereo unspecified)	-7%	0%	-2%	-28%	-0.6%	-27%	-2%	-5%
Cc1sc2nc(C(C)C)nc(SCC(=O)NC3CC3)c2c1C	7%[46.1 µM]	.	4%	-13%[46.1 µM]	.	-9%	0%	8%
COc1ccc(S(=O)(=O)Nc2cccc(-c3ccc(N4CCCC4)nn3)c2)cc1F	-17%[46.1 µM]	-15%	.	.	-5.2%	13%	.	.
CCOc1ccc(S(=O)(=O)N2CCC(C(=O)NC3CCCCC3)CC2)cc1	-10%	.	-9%	?	.	-14%	27%	-14%
Cc1c(-c2cccs2)[n+](=O)c2c(n1[O-])CCCC2	13%	6%	2%	1%	-0.7%	-9%	-22%	-11%
CC(C)N(C(=O)Cn1cc(S(=O)(=O)Cc2ccc(Br)cc2)c2ccccc21)C(C)C	13%[46.1 µM]	-7%	.	.	0.2%	1%	.	.
NC(=S)N1OC[C@@H]2COc3ccc4ccccc4c3[C@@H]21	5%	.	.	?	.	-1%	4%	-2%
O=C(c1ccc(Cn2cc(Br)cn2)o1)N1N=C(C(F)F)CC1(O)C(F)F (stereo unspecified)	1%	2%	4%	-1%	-0.9%	37%[activator]	8%[6.58 µM]	-8%
O=C(/C=C/c1ccccc1Cl)N1CCN(c2ncccn2)CC1	-12%	-7%	-39%	0%	-5.1%	18%	-21%	14%
O=C(NCCc1ccccc1)c1ccc([N+](=O)[O-])cc1	?	0%	-1%	?	3.1%	-37%	4%	-5%
COC(=O)CCCCCN1C(=O)/C(=C\c2ccncc2)SC1=S	.	.	-14%	.	.	?	-4%	-18%
Cc1ccc(C2CC(c3ccco3)n3nc(N)nc3N2)cc1 (stereo unspecified)	.	2%	6%	.	4.2%	-7%	-3%	8%
COc1cc(OC)cc(C(=O)OCc2cc3ccccc3[nH]c2=O)c1	-28%	-14%	7%	12%[46.1 µM]	3.3%	18%	4%	23%
COc1ccc(CNC(=O)c2c(O)c3cccc4c3n(c2=O)CCC4)cc1OC	-4%	?	5%	4%	2.1%	-46%	-9%	41%

Filtered by structure: the entries above with an NH in an aromatic ring.
SMILES	LASV entry inh	Cruzain noTriton	NS1 inh	Marburg entry inh	Cruzain inh Det	2A StopGo	SARS PLP yeast	RE007 growth inh
COc1ccc(/C(C)=N/NC(=O)c2ccc3nc[nH]c3c2)cc1	.	.	7%	.	.	13%	-1%	-8%
Cc1ccc(CNC(=O)c2ccc3c(=O)c(O)c(-c4ccc(C)cc4)[nH]c3c2)cc1	.	.	8%	.	.	-25%	?	11%
O=C(COc1ccccc1F)Nc1ccc(Cl)c(-c2nc3ccccc3[nH]2)c1	-24%[46.1 µM]	?	.	-21%[46.1 µM]	-6.6%	-4%	.	.
CCOc1ccc(NC(=O)N(Cc2c[nH]c3ccccc23)C2CCCCC2)cc1	-1%[46.1 µM]	9%	.	18%[46.1 µM]	-19%	30%	.	.
Cc1cc(-c2nnc3n2N=C(c2ccc(-c4ccccc4)cc2)CS3)n[nH]1	?	25µM*	3.2µM*	?	-10%	?	-15%	27%
COc1ccccc1-c1n[nH]c(=S)o1	-1%	8%	5%	3%	-0.3%	0%	-1%	-14%
COc1cc(OC)cc(C(=O)OCc2cc3ccccc3[nH]c2=O)c1	-28%	-14%	7%	12%[46.1 µM]	3.3%	18%	4%	23%
